Source: PubChem BioAssay (National Center for Advancing Translational Sciences (NCATS))
VACV mCherry inh = qHTS for Stage-Specific Inhibitors of Vaccinia Orthopoxvirus: mCherry Reporter Primary qHTS; Potency, µM (doses to about 36.5 µM), inactives show at the top dose activity change, negative = inhibition, actives largely listed as inhibitors; 0.63% of 310,000 active; Vaccinia virus mCherry reporter infection, fluorescence; about a quarter of the inactives have no number; active = well fitted inhibition curve with a large enough effect; inconclusive = small, poorly fitted or top-dose-only effect; inactive = no such curve, though single readings can be large or run the other way; tested in A549 cells; further: nearly all actives have a fitted effect of over 35% in size; inactives centre near -10
Vaccinia Venus = qHTS for Stage-Specific Inhibitors of Vaccinia Orthopoxvirus: Venus Reporter Primary qHTS; Vaccinia virus Venus reporter expression, fluorescence; Potency, µM (titrated, usually from 36.5 µM), for the others: at the top dose activity change, negative = inhibition, actives largely listed as inhibitors; 0.46% of 330,000 active; AID 720580, 2013; active means well fitted inhibition curve with a large enough effect; inconclusive means small, poorly fitted or top-dose-only effect; inactive means no such curve, though single readings can be large or run the other way; tested in A549 cells; further: nearly all actives have a fitted effect of over 30% in size; inactives centre near -10
* marks the source's active call; other numbers are inactive results; i = inactive; ? = inconclusive; · = no result given; & = joins results of further samples; [ ] = dose if it differs, or a comment. On the % scale 0 is the no-effect control and ±100 the full control effect; potency means the concentration at half of the fitted maximal effect. Rows are unselected; any-hit rate near 0.87%.

mol | VACV mCherry inh | Vaccinia Venus
CN(CC(=O)Nc1ccc(Cl)c(C(F)(F)F)c1)C(=O)C1CC(=O)N(Cc2ccco2)C1 (stereo not drawn) | i | -3.7%
CCOC(=O)c1cc(S(=O)(=O)Nc2ccccc2)[nH]n1 | -7.5% | -4.5%
C[C@H](CO)N1C[C@H](C)[C@@H](CN(C)S(=O)(=O)c2cccs2)Oc2ccc(NC(=O)Nc3ccc(C(F)(F)F)cc3)cc2C1=O | ? | ?
COC(=O)CC1Oc2ccc(Cl)cc2-n2cc(-c3ccc(F)cc3)nc21 (stereo not drawn) | -14.4% | -10.7%
C/C(=N\NC(=O)c1cc2ccccc2cc1O)c1ccc2c(c1)OCO2 | i | -4.9%
CCOc1ccc(C(=O)Nc2cc3c(cc2N2CCCC2)n(C)c(=O)c(=O)n3C)cc1OCC | -7.6% | -13.5%
Cc1cc2c(=O)n(C)c(SCC(=O)NCC3CCCO3)nc2s1 (stereo not drawn) | i | -3.6%
COCCNC(=O)c1ccc(CN2CCc3ccccc3C2)cc1 | i | -1.4%
CN(C1=NC(=O)CS1)c1ccc(O)cc1 | -13.1% | 5.0%
COc1cccc(-n2nnnc2SCC(=O)Nc2ccc3c(c2)OCCO3)c1 | i | -9.3%
CCOC(=O)c1ccccc1NC(=O)CN1CCC(n2nnc3cc(C(F)(F)F)ccc32)CC1 | i | 9.3%
Cc1cc(C)cc(N(CC(=O)N2CCN(Cc3ccccc3)CC2)S(=O)(=O)c2c(C)noc2C)c1 | 24.4%&11.2% | -5.1%&-13.4%
CCOC(=O)N1CCN(c2c(N3CCc4ccccc43)c(=O)c2=O)CC1 | i | -5.7%
Cc1ccc(NS(=O)(=O)c2cccc(C(=O)N(C)Cc3cccs3)c2)cc1 | -20.6% | -15.1%
Cc1c(NC(=O)c2cnc(Cl)c(Cl)c2)c(=O)n(-c2ccccc2)n1C | -10.9% | -6.9%
COc1cc2sc(-c3ccccc3OC)c(-c3ccc(OCCN4CCCCC4)cc3)c2cc1OC | -22.2% | ?
Cn1c(=O)oc2cc(S(=O)(=O)NC(CC(=O)O)c3cccc(Br)c3)ccc21 (stereo not drawn) | 7.2% | -3.1%
O=C(CCC(=O)Nc1ccccc1)NCCO | -12.0% | -9.0%
COc1ccc(S(=O)(=O)Nc2c(O)ccc3ccccc23)cc1OC | i | -3.1%
CC(Nc1ccccc1CO)C(=O)Nc1cccc(Cl)c1Cl (stereo not drawn) | -9.8% | -19.0%
CCc1nc2ccc(C(=O)NCc3ccc(OC)cc3)cn2c1N(C)CCC(C)C | 15.2% | -6.1%
CC1(C2CCCC2)NC(=O)NC1=O (stereo not drawn) | i | -11.4%
CC(=O)Nc1cccc(-c2ccnc3c2CC(C)(C(=O)NC(C)C)O3)c1 (stereo not drawn) | i | -17.7%
OC(c1cccc(OCc2ccccc2)c1)c1nnc(-c2ccccc2)o1 (stereo not drawn) | ? | -30.0%
O=C(CC(c1ccccc1)c1ccccc1)Nc1ncn[nH]1 | · | 1.1%
CC(=O)Nc1cccc(-c2nnc3n2CC(C)S3)c1 (stereo not drawn) | -13.5% | -10.9%
COc1cccc(N(C(=O)Cn2nnc(-c3ccc(Cl)cc3)n2)C(C(=O)NCC2CCCO2)c2ccc(C)cc2)c1 (stereo not drawn) | -13.6% | -7.9%
COc1cc2c(=O)n(Cc3ccccc3)c(=O)n(CC(=O)NCc3ccco3)c2cc1OC | · | -19.2%
CN(C)CCNc1ncnc2c1sc1nc(N3CCCC3)c3c(c12)CC(C)(C)OC3 | -23.6%[7.34 µM] | -18.2%[7.34 µM]
CCOc1ccc(C(=O)Nc2cccc(-c3nc4ccccc4[nH]3)c2C)cc1[N+](=O)[O-] | -16.6% | ?
CCCCN(C)C(=O)C(Cc1ccccc1)NS(=O)(=O)c1ccc2c(c1)c(=O)n(C)c(=O)n2C (stereo not drawn) | -11.3%&11.6% | -13.3%&2.1%
COCCN(C(=O)COC(=O)c1ccc2c(c1)OCCO2)c1c(N)n(Cc2ccccc2)c(=O)[nH]c1=O | -22.1% | -2.6%
CCc1c(C)sc(NC(=O)Cc2ccccc2C)c1C(=O)N1CCOCC1 | -11.5% | -11.2%
Nc1c2c(nc3ccccc13)CCC2 | · | -4.9%
Cc1sc2ncn(CC(=O)NCCCC(=O)N3CCN(c4ccccn4)CC3)c(=O)c2c1C | ? | -28.3%
CC(C)(C)OC(=O)N[C@@H](COCc1ccccc1)C(=O)N[C@@H](CO)[C@H](O)[C@@H]1C[C@@H]1C(=O)NC1CC1 | -14.2% | -3.5%
CCOC(=O)CC(=O)CSc1ncnc2c1oc1ccccc12 | · | -16.1%
COc1ccc(NC(=O)c2sc3nc(C)nc(N4CCOCC4)c3c2C)c(OC)c1 | -11.7% | -9.4%
CCC(C)(C)NC(=O)C(c1ccc(OC)cc1)N(C(=O)CCC(=O)Nc1cc(C)on1)C1CC1 (stereo not drawn) | i | -0.7%
O=C(NCCN1Cc2ccccc2OC(c2ccccc2F)C1)c1ccco1 (stereo not drawn) | -12.6% | -4.7%
CCCSc1nnc(NC(=O)CSc2sc3c(O)cc(=O)[nH]c3c2C#N)s1 | i | 0.0%
CCCN(CC(=O)Nc1ccccc1C)C(=O)/C=C/c1cccs1 | i | -1.6%
Cc1cccc(CNC(=O)CCCN2C(=O)c3cccnc3Oc3ccccc32)c1 | -4.4% | -7.6%
Cn1c(CN2CCN(C(=O)c3ccco3)CC2)nc2cc([N+](=O)[O-])ccc21 | -6.1% | -7.4%
CC1CN(C(=O)c2ccc(NS(=O)(=O)c3ccc(F)c(F)c3)cc2)CC(C)O1 (stereo not drawn) | i | -14.5%
Cc1cc(C(=O)N/N=C/c2c(CO)cnc(C)c2O)c2ccccc2n1 | ? | -16.5%
CN1CCN(c2nc(-c3ccccc3)c3cc(Cl)ccc3n2)CC1 | i | -17.0%
CCN(C(N)=S)c1ccccc1 | · | -18.4%
COc1ccc(NC(=O)[C@@H](NC(=O)N2C[C@H]3C[C@@H](C2)c2cccc(=O)n2C3)C(C)C)cc1 | -1.4% | 7.1%
CCCCCC(=O)NN1C(=S)N(c2ccc(OC)cc2)C(=O)C1CC(=O)Nc1ccccc1 (stereo not drawn) | -15.1% | -14.7%

(cont.)
mol | VACV mCherry inh | Vaccinia Venus
C1CC2NCCC3NCCC(N1)N32 (stereo not drawn) | i | -15.9%
Cc1ccc(C(=O)c2sc3c(c2N)c(=O)[nH]c(=O)n3CCc2ccccc2)cc1 | i | -3.4%
Cc1cccc(NC(=O)c2sc(-n3nc(C)c(CCC(C)C)c3C)nc2C)c1 | -5.2% | -19.2%
COC(=O)C(Cc1ccccc1)NC(=O)c1cc(S(=O)(=O)N(C)C)ccc1Cl (stereo not drawn) | -0.8% | -3.4%
CC(C)COC(=S)Nc1ccccc1 | · | -15.0%
COc1ccc(C(=O)C2CCCN(C(=O)Cn3nc(C)cc3C)C2)cc1F (stereo not drawn) | -9.3% | 0.2%
COc1ccc(OC)c(NC(=O)C2C3C=CC(C3)C2C(=O)NCc2cccnc2)c1 (stereo not drawn) | -10.0% | -11.6%
COc1ccc(-c2csc(C(C)(O)c3ccc(OC)cc3)n2)cc1 (stereo not drawn) | 11.8% | -15.5%
Cc1ccccc1NC(=O)Nc1nc2ccc(S(C)(=O)=O)cc2s1 | -8.1% | -11.2%
COc1ccc(CCC(=O)Nc2c(C)n(C)n(-c3ccccc3)c2=O)cc1 | i | -11.8%

Single records, from the list above:
`Cc1c(NC(=O)c2cnc(Cl)c(Cl)c2)c(=O)n(-c2ccccc2)n1C` across the screens: VACV mCherry inh: -10.9%; Vaccinia Venus: -6.9%
`CCCN(CC(=O)Nc1ccccc1C)C(=O)/C=C/c1cccs1` across the screens: VACV mCherry inh: i; Vaccinia Venus: -1.6%

Later entries.
mol | VACV mCherry inh | Vaccinia Venus
CN(C)/C(CN1CCN(C=O)CC1)=C1\N=C(c2ccccc2)OC1=O | -9.6% | -16.0%
COCCn1c(SCC(=O)Nc2cc(Cl)ccc2OC)nc2c(c1=O)SC(C)C2 (stereo not drawn) | 16.7% | -10.1%
COc1cc(Br)c(C2C(C#N)=C(N)Oc3n[nH]c(-c4cccnc4)c32)cc1OC (stereo not drawn) | 9.7% | -0.6%
O=c1[nH]c(C2CCN(S(=O)(=O)c3ccc4c(c3)OCCO4)CC2)nc2c1nnn2Cc1ccc(F)cc1 | ? | -5.9%
CC(C)NC(=S)NC(=O)/C=C/c1ccc(F)cc1 | -6.2% | -9.5%
CCCCN(CC)CCNC(=O)c1cn(C)c(=O)c2c1c1ccccc1n2C | -7.3% | 3.3%
CCc1ccc(-c2nc(CS(=O)CC(=O)O)c(C)o2)cc1 (stereo not drawn) | -6.2% | -13.9%
N#CCC(=O)Nc1ccc(C(=O)OCC(=O)Nc2sc3c(c2C#N)CCCC3)cc1 | -15.6% | -12.4%
O=C(CCCNC(=O)c1ccc(Cl)cc1)NCc1ccccc1F | -15.6% | -14.5%
Cc1cccc(NC(=O)c2cc(NC(=O)c3ccco3)ccc2Cl)n1 | · | -10.7%
CCn1nc(C)c2c(-c3ccccc3)cc(=O)n(C(C)C(=O)NCCc3ccc(Cl)cc3)c21 (stereo not drawn) | -6.4% | -4.1%
O=C1NC(Cc2ccccc2)c2nc3ccc(F)cc3c(=O)n2-c2cc3ccccc3cc21 (stereo not drawn) | i | ?
CC12CN3CCN(CC(C3)C1(O)CN1CCOCC1)C2 (stereo not drawn) | · | -13.8%
COc1ccc(CNc2nc(-c3ccc(Cl)cc3)nn2C(=O)c2ccccc2)cc1 | -17.6% | 0.4%
CCOC(=O)C1=C(C)Nc2ccccc2N=C1NC(=O)Cc1ccc(Br)cc1 | i | -19.7%
CC1=NN(c2ccc(N)cc2)C(=O)C1 | i | -12.0%
Cc1cccc[n+]1CC(=O)/C=C1\N(C)c2ccccc2C1(C)C | -1.4% | 49.0%[activator]
Cc1nnc(NC(=O)CSc2nnc(Cc3ccccc3)n2-c2ccccc2)s1 | · | -13.8%
CNC1C(O)C(O[C@H]2C(O)[C@@H](OC3OC(CN)=CCC3N)[C@H](N)C[C@@H]2N)OC[C@]1(C)O (stereo partly drawn) | -13.4% | -7.0%
CC[C@]12c3[nH]c4ccc(Cl)cc4c3CCN1C(=O)[C@@H](CC(=O)NCCN1CCOCC1)C[C@@H]2C(=O)N1CCN(C(=O)C2CC2)CC1 | i | -17.8%
CC1(C)CC[C@]2(C(=O)O[C@@H]3OC(CO)[C@@H](O)[C@H](O)[C@H]3O)CC[C@]3(C)C(=CCC4[C@@]5(C)CC[C@H](O[C@@H]6OC(C(=O)O)[C@@H](O)[C@H](O)[C@H]6O)C(C)(C)C5CC[C@]43C)[C@@H]2C1 (stereo partly drawn) | -1.9% | ?
CCCCOc1ccc(C(=O)NCC(=O)NC2CCN(Cc3ccccc3)CC2)cc1 | -12.4% | -1.1%
Cc1nc(COC(=O)c2c(C)nn(-c3ccccc3)c2C)cs1 | -10.8% | -13.3%
CCn1c(CN2CCC(C)CC2)nc2cc(NC(=O)c3ccc([N+](=O)[O-])cc3)ccc21 | -8.4% | -15.8%
S=c1[nH]nc(C2CC2)n1Cc1ccccc1 | -1.5% | -11.1%
COC(=O)Nc1ccc2c(c1)N(C(=O)CCCl)c1ccccc1S2 | -27.5% | -19.9%
CCSc1nnc(NC(=O)CN2C(=O)C3CC=CCC3C2=O)s1 (stereo not drawn) | -8.6% | -4.1%
CC(C)[C@H](NC(=O)c1cc2cc(Cl)ccc2n1C)C(=O)N1CCC(C(=O)O)CC1 | i | -0.2%
Cc1ccc2oc(=O)c3cc(C(=O)NCCN4CCN(C)CC4)sc3c2c1 | 9.3% | 15.7%
COc1ccc(NC(=O)CSc2nc(C)cs2)c([N+](=O)[O-])c1 | -19.0% | -11.3%
CCCCN(CC)CCCNC(=S)Nc1ccc2nc3n(c(=O)c2c1)CCCCC3 | -16.5% | -26.0%
O=C(O)C1=NN(c2ccccc2)C(=O)C1 | -2.1% | -14.3%
CCn1ncc(Br)c1C(=O)Nc1ccc(Cl)cn1 | -0.2% | -8.6%
CC(C)(C)OC(=O)N1CCC(c2nnc(SCc3cccc(Cl)c3)o2)CC1 | -18.7% | -7.5%
CC1(C)Cc2c(sc3nc(C4CC4)n(N)c(=O)c23)CO1 | -13.1% | -17.2%
COC(=O)c1ccccc1-c1ccc(/C=N/NC(=O)c2cc3ccccc3o2)o1 | i | -9.5%
Cc1ccc(-n2c(C)cc(/C=C3/SC(=O)N(CC(=O)N4CCOCC4)C3=O)c2C)nc1 | i | -8.4%
CNC(=O)c1cc(C(=O)c2ccc(C(F)(F)F)cc2)c[nH]1 | -13.9% | -12.0%
Cc1cc(C(=O)N2CCCC(N3CCN(c4ccccc4C)CC3)C2)nc(C)n1 (stereo not drawn) | i | -21.3%
CC(C)NC(=O)c1ccc(COc2cc(Cl)ccc2Cl)o1 | -10.5% | -2.4%
CCN1CCN(S(=O)(=O)c2ccc(S(=O)(=O)N(CC)Cc3ccccc3)cc2)CC1 | -18.0% | -15.0%
CCOC(=O)N1CCN(CC(O)COc2cc(C)cc(C)c2)CC1 (stereo not drawn) | 3.0% | -16.5%
CCN(CC)CCCN1C=C2C(=O)C(C)(OC(=O)CCc3ccccc3)C(=O)C=C2C=C1c1ccc(C#N)cc1 (stereo not drawn) | i | -2.0%
